KCNQ2 block = KCNQ2 potassium channel inhibitors, primary screen, cell-based, CHO-K1, FluxOR thallium flux, B-score (AID 2156) | 20 min; stronger effect = lower value; only compounds with negative scores are shown here; some inactives read as strong as hits | B-score at 10 µM | actives 1.1% (n = 310,000) | Potassium voltage-gated channel subfamily KQT member 2 (Rattus norvegicus), O88943;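 active = fluorescence ratio B-score at most minus 3 library SDs, with starting brightness B-score within 2 library SDs, cut at about -5.5 in these data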
Target sequence (O88943 whole entry, looked up): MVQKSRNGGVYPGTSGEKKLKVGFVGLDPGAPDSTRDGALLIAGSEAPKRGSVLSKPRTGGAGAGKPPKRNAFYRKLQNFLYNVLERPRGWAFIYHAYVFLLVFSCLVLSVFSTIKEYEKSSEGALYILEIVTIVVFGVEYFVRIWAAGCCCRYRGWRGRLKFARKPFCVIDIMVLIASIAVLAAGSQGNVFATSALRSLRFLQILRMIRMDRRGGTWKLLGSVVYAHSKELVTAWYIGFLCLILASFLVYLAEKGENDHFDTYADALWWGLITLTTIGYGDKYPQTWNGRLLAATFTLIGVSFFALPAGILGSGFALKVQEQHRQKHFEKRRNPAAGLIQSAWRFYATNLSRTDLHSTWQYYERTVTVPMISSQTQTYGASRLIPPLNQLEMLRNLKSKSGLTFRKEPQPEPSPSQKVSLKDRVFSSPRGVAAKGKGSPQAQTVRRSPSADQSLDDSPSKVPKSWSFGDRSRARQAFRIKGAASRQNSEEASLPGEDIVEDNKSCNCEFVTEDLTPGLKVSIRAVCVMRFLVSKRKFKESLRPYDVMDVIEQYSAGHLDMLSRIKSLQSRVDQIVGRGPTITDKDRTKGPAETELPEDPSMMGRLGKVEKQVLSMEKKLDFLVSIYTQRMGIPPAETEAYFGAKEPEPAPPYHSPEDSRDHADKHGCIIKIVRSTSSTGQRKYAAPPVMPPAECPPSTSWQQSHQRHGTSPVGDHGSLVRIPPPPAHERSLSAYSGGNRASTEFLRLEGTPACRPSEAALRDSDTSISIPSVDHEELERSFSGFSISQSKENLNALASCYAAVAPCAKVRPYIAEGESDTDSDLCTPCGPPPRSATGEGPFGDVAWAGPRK
KCNQ2 block baseline = second read-out of KCNQ2 block, no call of its own (marks repeat the call); B-score; measured here: initial fluorescence intensity artifact check;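 brightness before thallium and not channel activity; 0 = typical well and far values either way flag optical interference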
Active calls of the source: *; i = inactive. A portion of the library. The share of hits here may be higher or lower than overall.

Each structure is followed by: KCNQ2 block | KCNQ2 block baseline
> COc1ccc2ccccc2c1C1CC(=O)N2CN(Cc3ccco3)CSC2=C1C#N (stereo not drawn)
 : i | 1.5
> O=C(NCc1cccnc1)c1ccc(S(=O)(=O)Nc2ccccc2)cc1
 : i | 0.04
> COc1ccccc1C1CN(c2ccc(F)cc2F)N=C1c1cccs1 (stereo not drawn)
 : -7.77* | 1.95*
> Cc1ccc(OCC(=O)N/N=C\c2ccc(-c3cccc(C(=O)O)c3)o2)c(C)c1
 : i | 1.15
> CCOc1cc(C2C(C(=O)OC(C)C)=C(C)N=C3SCCC(=O)N32)ccc1OC(C)=O (stereo not drawn)
 : i | -0.62
> CC1(C)CC(=O)CC2(C1)NCC(c1ccccc1)c1c2[nH]c2ccccc12 (stereo not drawn)
 : i | 0.49
> CSC(=NCc1ccc(F)cc1)NS(=O)(=O)c1cccs1
 : i | 0.61
> CS(=O)(=O)N(CC(=O)NC1CCCC1)c1ccc2c(c1)OCCO2
 : i | 0.69
> Cc1cccc(Nc2nc(N)c([N+](=O)[O-])c(NCc3ccccc3)n2)c1
 : i | -0.02
> Cn1c(=O)[nH]c(=O)c2c1nc(SCCO)n2CCCc1ccccc1
 : i | 2.3
> C=CCn1c(SCc2ccc(C#N)cc2)nnc1-c1cccc(Cl)c1
 : i | 0.19
> Cc1ccc(N(Cc2ccccc2)C(=O)c2cc(S(=O)(=O)N3CCOCC3)ccc2Cl)cc1
 : i | -0.61
> Cc1ccc(NC(=O)Cn2nnc(-c3ccccc3-n3cnnn3)n2)c(C)c1
 : i | 0.47
> COC(=O)C1CSC2c3ccccc3C(=O)N12 (stereo not drawn)
 : i | 0.38
> NS(=O)(=O)c1ccc(NC(NC(=O)c2cccnc2)C(Cl)(Cl)Cl)cc1 (stereo not drawn)
 : i | 0.04
> CC(c1n[nH]c(=S)n1-c1ccc(F)cc1)N1CCCCC1 (stereo not drawn)
 : i | 1.73
> CCOC(=O)c1c(NC(=O)CSC2=NN3CCCC(=O)N=C3S2)sc2c1CCCCC2
 : i | -1.21
> O=C(CN1C(=O)c2cccc([N+](=O)[O-])c2C1=O)NCc1ccccc1
 : i | -0.01
> Cc1cc(C(=O)CN2C(=O)c3ccccc3S2(=O)=O)c(C)n1CC1CCCO1 (stereo not drawn)
 : i | 0.8
> CC(=O)Nc1ccc(S(=O)(=O)/N=C2\C(=O)c3ccccc3C([O-])=C2n2cc[n+](-c3ccccn3)c2)cc1
 : i | 0.07
> CC1=C(C(=O)OCc2ccccc2)C(c2ccccc2Cl)NC(=O)N1C (stereo not drawn)
 : i | -1.93
> CCN(CC)c1ccc(C=NCCc2ccc(S(N)(=O)=O)cc2)cc1
 : i | -0.48
> CC(C)(C)c1nc2c(C#N)c(-c3ccc(Cl)cc3)ccn2n1
 : i | 1.11
> COc1cc(/C=C2/C(=N)N3N=C(C)SC3=NC2=O)ccc1OS(=O)(=O)c1ccc(C)cc1
 : i | 2.11
> CCOC(=O)c1sc2ccccc2c1OC(=O)c1ccccc1
 : i | -1.87
> CCC(C)[C@H](NC(=O)NCCCN1CCOCC1)C(=O)OC (stereo partly drawn)
 : i | -0.42
> CCOC(=O)N1CCN(c2cc(N)c([N+](=O)[O-])cc2F)CC1
 : i | 0.86
> O=C(CSc1nc(-c2ccco2)cc(C(F)(F)F)n1)NCc1cccs1
 : i | -1.51
> O=C(NCc1cccnc1)c1ccc(COc2ccc(Cl)cc2Cl)o1
 : i | 0.77
> CCC(C)(C)n1nnnc1CN1CCN(c2nc3cc(OC)ccc3cc2C#N)CC1
 : i | 2.85

The listing continues:
Each structure is followed by: KCNQ2 block | KCNQ2 block baseline
> COc1ccc(Nc2c3c(nc4c(-c5ccccc5)c(C)nn24)CCC3)cc1
 : i | -1.27
> OCCC1CN(Cc2cc3c(cc2Cl)OCO3)CCN1C1CCCC1 (stereo not drawn)
 : i | -0.44
> CC(C)c1ccccc1NC(=S)N1CCN(Cc2ccc3c(c2)OCO3)CC1
 : i | 0.29
> COCCN(C(=O)CCC(=O)Nc1ccccn1)C(C(=O)NCCC(C)C)c1ccc(OC)cc1 (stereo not drawn)
 : i | 1.15
> O=C(Nc1ccc(OCC(=O)N2CCOCC2)cc1)c1cc(F)c(F)cc1Cl
 : i | -0.15
> COC(=O)c1ccc(NC(=O)c2c(Br)cnn2C)cc1
 : i | 1.38
> CCNS(=O)(=O)c1ccc(CCC(=O)N2CCN(c3cc(Cl)ccc3C)CC2)cc1
 : i | -0.56
> Cc1cc(C)c(Nc2ncnc(N)n2)c(C)c1
 : i | 1.02
> O=C(Cc1ncc(C(F)(F)F)cc1Cl)NNc1cccc(F)n1
 : i | 0.06
> O=C(N/N=C/c1cccc([N+](=O)[O-])c1)c1cccc(Br)c1
 : i | 0.53
> CCc1cc(/C(Cc2ccccn2)=N\Nc2ccccc2)c(O)cc1O
 : i | 0.34
> COCCN(C(=O)c1ccccc1F)c1nnc(-c2ccc(OC)cc2)s1
 : i | -1.1
> O=C(C1CC(=O)N(C2CCCC2)C1)N1CCN(c2ccccc2F)CC1 (stereo not drawn)
 : i | 3.51
> CC(NCC(=O)NC(=O)NC1CCCC1)c1ccc(Cl)cc1Cl (stereo not drawn)
 : i | 0.27
> CC(=O)Nc1ccc(NC(=O)CCNS(=O)(=O)c2cccc3nsnc23)cc1
 : i | -1.2
> O=C(O)C1C2C=CC(O2)C1C(=O)NCCc1cccc(Cl)c1 (stereo not drawn)
 : i | -0.67
> Cc1cc(OC(=O)c2ccccc2Br)cc(=O)n1C
 : i | 0.98
> CCN(CC)C(=O)CCSc1nnc(-c2ccco2)o1
 : i | 0.98
> COC(=O)c1cc(-c2ccccc2)nc2nc(SC)[nH]c(=O)c12
 : i | 0.92
> CCOC(=O)C1=C(C)NC2=C(C(=O)C(C(=O)OC)C(C)C2)C1c1ccc(OC)c(O)c1 (stereo not drawn)
 : i | 1.16
> COc1ccc(CC(=O)Nc2nc3n(n2)C(c2ccccc2)CC(=O)N3)cc1OC (stereo not drawn)
 : i | 0.21
> C/C(=N/NC(=O)CNC(=O)c1cccs1)c1ccc(Cl)cc1
 : i | 1.43
> Cc1ccc(/C=N/NC(=O)c2ccncc2)cc1
 : i | -2.2
> CS(=O)(=O)N(Cc1ccccc1)c1ccccn1
 : i | -0.25
> CCOc1ccc(OCC(=O)NCc2n[nH]c(=O)c3ccccc23)cc1
 : i | 0.05
> CN=c1sc(C(=O)Nc2ccccc2)c(C)n1C
 : i | -0.57
> Cc1ccc(NC(=O)CSC2=NN3CCCC(=O)N=C3S2)cc1Cl
 : i | -2.4
> CN(CCOc1ccccc1)CC(=O)Nc1ccc(Br)cc1F
 : i | -0.98
> CCc1ccc(OCc2cnc(Cl)s2)cc1
 : i | 2.49
> O=C(N/N=C/c1ccccc1O)/C(=C/c1ccccc1)CCO
 : i | 0.02

New compounds follow:
Each structure is followed by: KCNQ2 block | KCNQ2 block baseline
> O=C(NNc1nc2ccccc2s1)c1ccccc1F
 : i | 1.86
> COc1nc(SC)nc(Cl)c1Cc1ccc(OC(C)C)cc1
 : i | -0.04
> O=C(CN1C(=O)c2ccccc2S1(=O)=O)N1CCc2ccccc21
 : i | 0.25
> Cc1cccc2cc(CN(CCCO)C(=O)Nc3cccc(Cl)c3)c(=O)[nH]c12
 : i | 0.61
> O=S1(=O)N[C@H](c2ccccc2)C[C@H](c2ccc(C(F)(F)F)cc2)O1
 : i | 0.19
> CC(C)NC(=O)CSCc1c(Cl)cccc1Cl
 : i | 1.18
> CCOc1cc(/C=C2\CN(CC)C/C(=C\c3ccc(O)c(OCC)c3)C2=O)ccc1O
 : i | 1.29
> O=C(COc1ccccc1Cl)Nc1ccccc1C(=O)N1CCCCC1
 : -5.99* | 1.56*
> COc1ccc(OCc2ccc(-c3nc4ccccc4c(=O)n3N)o2)cc1
 : i | 1.67
> O=C(c1c[nH]c(C(=O)C(Cl)(Cl)Cl)c1)c1ccccc1Cl
 : i | 0.1
> O=C(Nc1ccc(NS(=O)(=O)c2ccc([N+](=O)[O-])cc2)cc1)c1ccco1
 : i | 1.62
> O=C(NCC(=O)N(CCN1CCOCC1)C(C(=O)NC1CCCC1)c1ccccc1)c1cccs1 (stereo not drawn)
 : i | 1.43
> CC1=C(OC(=O)c2ccccc2)C(C)(C)C(c2ccc(Br)cc2)OC1=O (stereo not drawn)
 : i | -0.5
> C=CCn1c(SCC(=O)N(C)C2CCS(=O)(=O)C2)nnc1-c1ccccc1 (stereo not drawn)
 : i | 1.38
> COC(=O)c1ccc(NC(=O)COc2ccc3c(c2)OCO3)cc1
 : i | -0.12
> CC1CCCN(C(=O)c2ccc3c(=O)n(C4CCCC4)c(=S)[nH]c3c2)C1 (stereo not drawn)
 : i | 1
> COc1ccc(CCNC(=O)CSc2nc(C)cs2)cc1
 : i | 0.68
> COc1cc(C(=O)NC(=S)Nc2ccccc2[N+](=O)[O-])cc(OC)c1OC
 : i | 1.69
> Cc1noc(C)c1S(=O)(=O)N1CCC(C(=O)N2CCN(c3ccc(Cl)cc3)CC2)CC1
 : i | -0.5
> O=C(O)c1oc2ccccc2c1CSCc1ccccc1
 : i | 0.63
> Cc1cccc(C(=O)O/N=C(\N)Cc2cccc3ccccc23)c1
 : i | -1.91
> Cc1cc(OCC(=O)Nc2ccncc2)ccc1Br
 : i | 0.05
> Cc1nc(SCC(=O)Nc2ccc(C)c(F)c2)c2oc3ccccc3c2n1
 : i | -0.02
> Cc1ccc(NC(=O)CSC(C)C(=O)OCC(=O)N2CCN(C(=O)c3ccco3)CC2)cc1 (stereo not drawn)
 : i | 1.42
> CC1(C)CC2CC(C)(CN2C(=O)c2ccccc2)C1 (stereo not drawn)
 : i | -0.46
> COc1ccc(-c2ccnc(SCC(=O)c3ccc(Br)cc3)n2)cc1
 : i | -0.98
> O=C(Nc1nnc(SCc2c(Cl)cccc2Cl)s1)C1CCCO1 (stereo not drawn)
 : i | -0.06
> COc1ccc(C2c3c(ncn(CCN4CCOCC4)c3=N)Oc3ccc4ccccc4c32)cc1 (stereo not drawn)
 : i | -0.46
> COC(=O)Cc1ccc(NC(=S)N2CCCCC2C)cc1 (stereo not drawn)
 : i | -0.13
> Clc1ccc(CN2CCC(c3nc4ccc(Cl)cc4[nH]3)CC2)cc1
 : i | 0.11

(further entries)
Each structure is followed by: KCNQ2 block | KCNQ2 block baseline
> O=C(CN(Cc1ccco1)C(=O)CNS(=O)(=O)c1ccc(Cl)cc1)NCc1ccco1
 : i | -1.53
> C/C(=N/NC(=O)c1cccs1)c1cccc(NC(=O)C2CC2)c1
 : i | -0.68
> O=C(c1ccc(Cl)c(NC2=NC3CS(=O)(=O)CC3S2)c1)N1CCN(c2ccccc2)CC1 (stereo not drawn)
 : i | -0.39
> COc1cc(S(=O)(=O)n2c(C)nc3ccccc32)ccc1F
 : i | -1.01
> CCN(CC)C(=O)CSc1nnc2nnc3cc(Cl)ccc3n12
 : i | 5.39
> CN(C)c1ccc(-c2ccc([C@H]3[C@@H]4C=CCC[C@@]4(C)C(=O)N3Cc3ccccc3)c(F)c2)cc1
 : i | 0.87
> CC(C)N(Cc1ccccc1)S(=O)(=O)c1ccc(Cl)nc1
 : i | 1.64
> O=C(Cn1nnc2ccccc21)NNC(=S)NC1CCCCC1
 : i | -0.01
> COc1ccc(Nc2nc(-c3cccc([N+](=O)[O-])c3)nc3ccccc23)cc1
 : i | 0.32
> CC(=O)Nc1ccc(NC(=O)C(C)OC(=O)c2ccccc2C(=O)c2ccc(Cl)c([N+](=O)[O-])c2)cc1 (stereo not drawn)
 : i | 1.24
> Cc1cc(C)cc(NC(=O)CS(=O)(=O)c2ccccc2)c1
 : i | -1.67
> CC(=O)Nc1ccc(S(=O)(=O)N2CCOCC2)cc1
 : i | -0.74
> Cc1ccc(S(=O)(=O)N(CC(=O)NCCSCc2ccco2)c2cc(C)ccc2C)cc1
 : i | -0.25
> O=c1c2ccccc2nc2c3ccccc3cnn12
 : i | -0.55
> CCN1C(=O)/C(=C\N(C)C)c2ccccc21
 : i | -0.02
> CCCC(=O)Nc1nc2ccc(NC(=O)c3ccc(Br)o3)cc2s1
 : i | -1.35
> O=C(NCCN1CCCC(O)C1)c1cc(COc2c(F)cccc2F)on1 (stereo not drawn)
 : i | -0.08
> COc1ccc(Cc2c(O)nc(SC)n(C(C)=O)c2=O)cc1
 : i | 0.96
> CCc1ccc(C(=O)Cc2cc3cccc(OC)c3oc2=O)cc1
 : i | 0.22
> CC(C)(C)c1ccc(OCCn2ccccc2=O)cc1
 : i | 1.42
> C/C(=N\O)c1cc(Cl)cc(Cl)c1O
 : i | 4.05
> Nn1cnc2c(c1=O)C1(CCCCC1)Cc1ccccc1-2
 : i | 0.69
> Cc1cccc(C)c1NC(=O)C(NC(=O)c1ccccn1)c1ccc([N+](=O)[O-])cc1 (stereo not drawn)
 : i | -0.07
> CCOC(=O)c1ccc(N/C(=N\S(=O)(=O)c2ccccc2C)c2ccccc2)cc1
 : i | 0.03
> O=C1CCCC2=C1C(c1ccc(O)c(O)c1)Nc1ccc3ncccc3c12 (stereo not drawn)
 : i | 0.2
> CCC(=O)NCCCc1nc(-c2ccccc2)no1
 : i | -0.04

Gathered by group, the compounds so far containing an NH in an aromatic ring.
Each structure is followed by: KCNQ2 block | KCNQ2 block baseline
> CC1(C)CC(=O)CC2(C1)NCC(c1ccccc1)c1c2[nH]c2ccccc12 (stereo not drawn)
 : i | 0.49
> Cn1c(=O)[nH]c(=O)c2c1nc(SCCO)n2CCCc1ccccc1
 : i | 2.3
> CC(c1n[nH]c(=S)n1-c1ccc(F)cc1)N1CCCCC1 (stereo not drawn)
 : i | 1.73
> COC(=O)c1cc(-c2ccccc2)nc2nc(SC)[nH]c(=O)c12
 : i | 0.92
> CCOc1ccc(OCC(=O)NCc2n[nH]c(=O)c3ccccc23)cc1
 : i | 0.05
> Cc1cccc2cc(CN(CCCO)C(=O)Nc3cccc(Cl)c3)c(=O)[nH]c12
 : i | 0.61
> O=C(c1c[nH]c(C(=O)C(Cl)(Cl)Cl)c1)c1ccccc1Cl
 : i | 0.1
> CC1CCCN(C(=O)c2ccc3c(=O)n(C4CCCC4)c(=S)[nH]c3c2)C1 (stereo not drawn)
 : i | 1
> Clc1ccc(CN2CCC(c3nc4ccc(Cl)cc4[nH]3)CC2)cc1
 : i | 0.11
